# From PubChem BioAssay
# AID504770: growth inhibitors of E. coli YBA685 in a screen for V. cholerae RctB (chromosome II replication) inhibitors; z-score (no concentration beside the values); 130,000 compounds, 0.27% hits; E. coli YBA685 rctB-dependent plasmid, OD600 growth, 3 h; stronger effect = lower value;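 active = z-score under -2 on both plates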;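 note: wells of about 30 µL received 100 nL stock; score is relative to mean and SD of the test wells; the first replicate is given; strong numbers were not always called active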
# Ba CapD inh: blocks the Bacillus anthracis CapD enzyme; purified CapD enzyme, fluorescence intensity read-out; stronger effect = lower value; some hits fall short of the stated cut; z-score (concentration not given with the values); 140,000 compounds, 0.23% hits;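 active = z-score under -4 in either of two replicates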;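 note: stock transfer was 100 nL into about 40 µL; score is relative to mean and spread of the plate; one replicate is shown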
# * marks the source's active call; other numbers are inactive results; i = inactive; nt = not tested or not shown; & = joins results of further samples.
# A first look, 3 compounds:
SMILES,AID504770,Ba CapD inh
O=C(CNc1cccc(C(F)(F)F)c1)N/N=C/c1ccc2c(c1)OCO2,-0.2,nt
CNC(=O)COc1ccccc1C(F)(F)F,-0.35,0.31
O=C1C=C(NCc2ccco2)CCC1,2.9,-0.56

# This part in full, repeating the preview:
SMILES,AID504770,Ba CapD inh
O=C(CNc1cccc(C(F)(F)F)c1)N/N=C/c1ccc2c(c1)OCO2,-0.2,nt
CNC(=O)COc1ccccc1C(F)(F)F,-0.35,0.31
O=C1C=C(NCc2ccco2)CCC1,2.9,-0.56
Cc1nc(-c2cc(C#N)c(Sc3ccccc3)nc2C)cs1,nt,-0.27
COc1ccccc1C(=O)NC(C(=O)OC(C)(C)C)c1ccccc1 (centres undefined),nt,0.635
CC1CCCCN1S(=O)(=O)c1ccc(N)cc1 (centres undefined),-0.95,0.325
COc1cc(-c2n[nH]c(=S)n2C)cc(OC)c1OC,-0.3,nt
Cc1cc(C(=O)Nc2ccc(O)c(-c3nc4ccccc4s3)c2)ccc1[N+](=O)[O-],nt,-0.065
Cc1cc([N+](=O)[O-])c2[nH]c3c(c2c1)CCNC3=O,nt,0.115
CCCCCc1ccc(C(=O)CCC(=O)O)cc1,nt,-0.125
NS(=O)(=O)c1ccc(CNC(=O)OCCc2ccccc2Br)cc1,nt,-0.13
O=C(CCc1nc2cccnc2n1-c1ccccc1)NC1CCCCC1,0.65,0.75
CC1CN(C(=O)COC(=O)c2cccc3ccccc23)CC(C)O1 (centres undefined),0.2,nt
COC(=O)c1ccc(/C=C2/Oc3ccccc3N(Cc3ccccc3F)C2=O)cc1,-0.4,0.075
O=C(NCc1ccc2c(c1)OCO2)C1CCCN1C(=O)NCc1ccccc1 (centres undefined),-0.6,nt
COc1cccc2c1CCN(Cc1ccccc1)C2=O,-0.2,0.26
O=c1cc(CSc2nc3ccccc3c(=O)n2-c2ccc(F)cc2)c2ccccc2[nH]1,0.55,1.23
O=C1c2ccccc2C(=O)N1CCCCn1nnc(-c2ccc(F)cc2)n1,0.25,nt
CCc1ccccc1Nc1nc(N)nc(CNCc2ccc(F)cc2)n1,0,nt
CN(Nc1ccccc1)C1=C(C#N)CN(C2CCCCC2)C1=O,0.25,0.155
COc1ccc(C(=O)N/N=C/c2ccsc2)cc1,nt,-0.32
COC(=O)CNC(c1ccccc1)c1cc(C)ccc1NC(=O)c1ccccc1 (centres undefined),-0.6,-0.225
COc1ccc(-c2cc(-c3ccccc3)nc(SCC(=O)NC3CC3)c2C#N)cc1,nt,-0.365
CC(C)c1ccccc1OCC(O)CN(C)C1CCCCC1 (centres undefined),-0.75,-0.06
COc1ccc(-c2cc(=O)oc3cc4occ(C)c4cc23)cc1,-0.15,0.635

# Next part (2 carried over from the part before).
SMILES,AID504770,Ba CapD inh
CC(C)c1ccccc1OCC(O)CN(C)C1CCCCC1 (centres undefined),-0.75,-0.06
COc1ccc(-c2cc(=O)oc3cc4occ(C)c4cc23)cc1,-0.15,0.635
NC(=O)c1ccc(NC(=O)Cc2coc3cc4c(cc23)CCC4)cc1,0.45,nt
CCOc1ccc(-n2cc(-c3ccccc3)c3c(NCCc4ccc(S(N)(=O)=O)cc4)ncnc32)cc1,nt,0.56
Cc1nc(NCC(=O)O)c2c3c(sc2n1)CCCC3,-0.05,nt
Nc1nc(C2CCCCC2)cs1,-0.85,0.465
O=C(Cn1c(-c2cccs2)cc2ccccc21)NCc1cccs1,1.4,104
O=C(/C=C/c1ccco1)NCc1ccccc1C(F)(F)F,-0.5,0.205
O=C(/C=C/c1ccc(S(=O)(=O)N2CCCCCC2)cc1)OCc1nnc(-c2ccccc2)o1,0.3,nt
C=CCOC(=O)C1=C(C)NC(C)=C(C(=O)OCC=C)C1c1cn(-c2ccccc2)nc1-c1ccc(OC)c([N+](=O)[O-])c1,nt,-0.175
CCc1ccccc1N=C1SCC(=O)N1C,0,nt
O=C(O)COCC(=O)N1CCN(c2cc(C(F)(F)F)nc3ccccc23)CC1,-0.35,-0.465
COc1ncnc(Cl)c1N,0.1,nt
COC(=O)c1cc2sc(Cl)cc2n1CC(=O)N1CCCc2ccccc21,0.45,-2.52
COC(=O)c1ccccc1S(=O)(=O)NC(=O)N(C)c1nc(C)nc(OC)n1,0.1,nt
COC(=O)c1cc2c(cc1NC(=O)Cn1ncc3c1-c1cc(C)ccc1OC3)OCO2,-0.5,9.6
CC(=O)N1CCN(C(=O)CSc2nc3cc(Cl)ccc3s2)CC1,-0.3,nt
O=C(Cc1nc2ccccc2[nH]1)Oc1ccccc1,-1.6,-0.12
C=CCn1c(SCC(=O)Nc2sc3c(c2C(N)=O)CCC3)nc2sc(C)c(C)c2c1=O,0.55,nt
FC(F)(F)c1nc(N/N=C/c2ccc(Cl)cc2)c2ccccc2n1,nt,0.28
NC(N)=NCc1cccc(I)c1,nt,1.48
CN(CCc1ccccn1)C(=O)Nc1ccc(C(C)(C)C)cc1,0,-0.59
COc1ccc2oc(=O)c(-c3ccccc3)cc2c1,-0.7,7.38
CCc1cccc(C)c1NC(=O)C1COc2ccccc2O1 (centres undefined),-1.55,-0.605
COC(=O)c1c(C)oc2c1cc(NS(=O)(=O)c1ccc3c4c(cccc14)C(=O)N3)c1ccccc12,nt,0.5
COC(=O)c1cnc(N2CCN(c3ncc(C(=O)OC)c(C(F)(F)F)n3)CC2)nc1C(F)(F)F,-0.7,0.72
COc1ccc2c(c1)C(=O)/C(=C/c1ccc(N(C)C)cc1)CC2,-0.85,0.15

# (continued)
SMILES,AID504770,Ba CapD inh
Cc1ccc(S(=O)(=O)c2cnc(N)nc2-c2cccnc2)cc1,nt,-0.385
Cc1ccccc1SCC(=O)OC(C)C(N)=O (centres undefined),-0.1,nt
O=C(NCC1CCCO1)C1CC(c2ccc(F)cc2)=NO1 (centres undefined),0.15,0.025
O=C1C2C3C=CC(C3)C2C(=O)N1CCN1CCN(S(=O)(=O)c2ccc3ccccc3c2)CC1 (centres undefined),nt,-0.16
Cc1ccc(S(=O)(=O)/N=C(\c2ccccc2)N(C)S(=O)(=O)c2ccc(C)cc2)cc1,-0.5,-0.515
CN1CCSc2ccc(C(=O)NCCN3CCCC3)cc21,-1.05,51
CCOC(=O)c1csc(Cc2ccc(-c3csnn3)cc2)n1,-0.35,-0.33
FC(F)(F)c1nc(Sc2ncccc2C(F)(F)F)n[nH]1,0.5,0.02
c1ccc2c(c1)CCCC2C1=NCCN1 (centres undefined),0.15,-0.185&-0.53
CN(C)/C=C1/C(=O)N(c2nc3ccccc3s2)N=C1C(F)(F)F,nt,-0.83
CCCOc1nnc(-c2ccc(OC)cc2)c2ccccc12,nt,-0.165
COc1cccc(NC=C2C(=O)OC(C)(C)OC2=O)c1,-0.9,-2.67
CCOC(=O)c1sc2nc(C)nc(N3CCC(C)CC3)c2c1C,-0.65,0.165
CCCCC(=O)Nc1ccc(N2CCN(C(=O)CCC)CC2)c(Cl)c1,-0.75,0.14
Cc1cc(C)nc(N2CCN(C(=O)CCC(=O)NCC3CCCO3)CC2)n1 (centres undefined),nt,1.94
O=C(COC(=O)/C=C/c1cccc(Cl)c1)NC1CCCCC1,1,0.56
O=C(CSc1ncn[nH]1)Nc1cccc2ccccc12,-0.75,0.26
O=C(C1CC(=O)N(c2ccc(Cl)cc2)C1)N1CCN(Cc2ccc3c(c2)OCO3)CC1 (centres undefined),-0.8,nt
O=C(CN1CCc2sccc2C1c1cccs1)N1CCC(c2ccccc2)=N1 (centres undefined),0.6,nt
CC(NC(=O)c1ccc(-c2ccccc2)cc1)C(=O)O (centres undefined),-1,nt
CCOC(=O)c1sc(N2C(=O)C(O)=C(C(=O)c3ccco3)C2c2ccco2)nc1C (centres undefined),-0.35,1.25
O=C(NCCc1cccs1)c1ccc(Cl)cc1,-0.6,0.17
CC(=O)NC(=O)c1cc2c(ccc3ccccc32)oc1=Nc1ccc(F)c(Cl)c1,nt,-0.535
Cc1cc(C)c(S(=O)(=O)N(CC#N)CC#N)c(C)c1,-0.45,0.105
c1ccc(C23OC4C5C6CC(C7C6C4C72)C53)cc1 (centres undefined),nt,0.09

# The results go on:
SMILES,AID504770,Ba CapD inh
CC1=CC(C)(C)NC(=S)N1c1ccc(C(C)C)cc1,-0.3,0.085
O=C(NC(CSCc1ccccc1)C(=O)Nc1ccc2ccccc2c1)OCCCCCc1ccccc1 (centres undefined),nt,0.67
N/C(=N\O)c1ccc(NC(=O)c2ccccn2)cc1,-0.7,-0.55
Cc1nnsc1C(=O)N1CCN(C=O)CC1,-0.7,nt
O=C(COc1ccc(-c2ccccc2)cc1)NCc1cccnc1,0.05,-0.49
Cc1nc(C(F)(F)F)ccc1C(=O)N1CCC(n2cccc2)CC1,0.4,0.875
N#Cc1ccc(C#N)c(-c2ccccc2)c1,2.2,2.19
COc1ccccc1OC(=O)c1sccc1C,-1.45,nt
Cc1ccc(S(=O)(=O)NC(=O)N2CCCC2)cc1,-0.05,0.105
N#CCc1nc2ccccc2c(=O)[nH]1,-1.55,nt
COc1ccc(CC(=O)N(Cc2nc(-c3ccc(Cl)cc3)no2)C(C)C)cc1OC,0.2,58.4
Nn1c(SCc2cc(=O)oc3cc(O)c(O)cc23)nnc1-c1ccncc1,0.45,nt
CCOC(=O)C1=C(O)/C(=C/c2ccc([N+](=O)[O-])cc2)SC1=Nc1cccc2ccccc12,nt,-0.35
COc1ccc(Cl)cc1NC(=O)c1sc2nc(C)n(C)c(=O)c2c1C,-0.45,-0.08
CC(=O)Nc1ccc(NC(NC(=O)c2cccs2)C(=O)c2ccccc2)cc1 (centres undefined),-0.05,4.21
CCOC(=O)C(Cc1c[nH]c2ccccc12)NC(=O)CCCCCN1C(=O)c2ccccc2C1=O (centres undefined),nt,-0.1
COc1cccc(C(=O)N2CCN(c3nc4ccccc4s3)CC2)c1,nt,2.92
Cc1ccc(SC2CN(C(c3ccccc3)c3ccccc3)C2)cc1,0.8,-0.44
Cn1c(CSc2cccs2)nnc1SCC(=O)Nc1ccc(Cl)cc1,-0.05,-0.02
CC(=O)NCc1n[nH]c(=O)c2ccccc12,-0.4,nt
OCCNc1ccc(NCCO)nn1,nt,16.3
C=CCNC(=O)c1ccccc1NC(=O)C1COc2ccccc2O1 (centres undefined),-0.9,nt
O=c1c2c(nc(NCCCO)n1Cc1ccccc1)-c1ccccc1CC21CCCC1,1.45,51.9
Cc1cccc(-n2cnc3c(c2=O)c2nc4ccccc4nc2n3CCC(C)C)c1,-0.25,5.95
CN1C(=O)C(=Cc2ccc(-c3ccc([N+](=O)[O-])cc3Br)o2)C(=O)N(C)C1=S,nt,-0.165

# Continuation.
SMILES,AID504770,Ba CapD inh
CCN(CC)c1cc(N(C)c2ccccc2)c([N+](=O)[O-])c2nonc12,nt,0.265
Cc1ccc(C2=NS(=O)(=O)N(C)C(C(=O)Nc3cc(C)n(CC(=O)N4CCOCC4)n3)=C2)cc1,-0.45,-1.94
CC(C)c1ccc(OCC(=O)NC(C)c2ccccc2)cc1 (centres undefined),-0.15,0.28
O=C(OCN1C(=O)c2ccccc2C1=O)C1CCN(S(=O)(=O)c2ccc3c(c2)OCCO3)CC1,-0.15,nt
O=C(c1c(F)cccc1F)N1CCN(c2cc(N3CCCCC3)c(F)cc2[N+](=O)[O-])CC1,nt,0.04
Cc1ccc(NC(=O)CSc2nncn2N)cc1C,1.3,nt
O=C(N/N=C/c1ccncc1)c1ccccc1,-1.05,nt
Clc1cccc(C2Nc3cccc4cccc(c34)N2)c1,nt,11.3
COc1ccc(/C=N/NC(=O)Cc2c[nH]c3ccccc23)cc1OC,nt,0.085
CCCN(C(=O)C(C)(C)C)c1nc(-c2ccccc2)cs1,-0.5,-0.325
O=C(c1c(-c2ccccc2)oc2ccc(O)cc12)N1CCCCC1,-0.8,i
CC1=C(C#N)C(c2ccc3c(c2)CCO3)C2=C(CCCC2=O)N1 (centres undefined),0.45,42.2
CS(=O)(=O)c1ccc(Cl)c(N)c1,0.35,nt
Cc1ccnc(NC(c2ccco2)c2c(C)[nH]c3ccccc23)c1 (centres undefined),-0.4,nt
COc1ccc(CN=C(N)N=C(N)N)cc1,-1.25,nt
CCOc1ccc(C2C(N3C(=O)c4c(Cl)c(Cl)c(Cl)c(Cl)c4C3=O)C(=O)N2c2ccc(Cl)c(Cl)c2)cc1 (centres undefined),nt,-0.44
O=C(Nc1ccc(Sc2ccc(F)cc2)cc1)c1ccc(Cl)cc1Cl,nt,-0.13
Cc1ccc(C)n1-c1sccc1C(=O)CC#N,-0.7,0.39
Cc1ccc(N2C(=O)C(N3C(=O)c4ccccc4C3=O)C2c2ccc(F)cc2)cc1C (centres undefined),nt,0.06
CN(c1ccccc1)S(=O)(=O)c1ccc(C(=O)Nc2ccc3c(c2)C(=O)c2ccccc2C3=O)cc1,nt,1.33
CCCCn1c(=O)c(C(=O)Nc2cccc(Br)c2)c(O)c2ccccc21,nt,-0.88
CCOC(=O)c1sc2nc(CC(=O)OC)nc(NC(C)CC)c2c1C (centres undefined),nt,51.7
Fc1ccccc1CCNc1c2c(nc3ncnn13)CCCC2,-0.55,0.015
CNC(=O)/C(=N\O)c1ccccc1,0.35,0.045
CN(C)c1cccc(N2C(=S)SC3CS(=O)(=O)CC32)c1 (centres undefined),-0.1,95.5
O=C(Nc1cccc(Cl)c1)NC1Cc2ccccc2C1,nt,-0.28
O=C(Nc1ccc(S(=O)(=O)N(C2CC2)C2CCN(Cc3ccccc3)CC2)cc1)Nc1ccccc1C(F)(F)F,nt,-0.45

# Shown as tab-separated lines: entries from further up
structure	AID504770	Ba CapD inh
Cc1ccc(C)n1-c1sccc1C(=O)CC#N	-0.7	0.39
Cc1ccc(N2C(=O)C(N3C(=O)c4ccccc4C3=O)C2c2ccc(F)cc2)cc1C (centres undefined)	nt	0.06
CN(c1ccccc1)S(=O)(=O)c1ccc(C(=O)Nc2ccc3c(c2)C(=O)c2ccccc2C3=O)cc1	nt	1.33
CCCCn1c(=O)c(C(=O)Nc2cccc(Br)c2)c(O)c2ccccc21	nt	-0.88

# This is a subset, so the mix of outcomes need not match the whole.
